# Screens (PubChem)
# HPGD block = HPGD (human) dehydrogenase inhibition | AID 894 | P15428 | Potency, µM, for inactives: top-dose activity change, negative = inhibition, most hits filed as inhibitors | purified HPGD, NADH fluorescence kinetic, PGE2 substrate | 150,000 tested, 4.3% active; active = well fitted inhibition curve with a large enough effect (not every such curve was filed as active); inconclusive = small, poorly fitted or top-dose-only effect, or another doubt; inactive = no such curve, though single readings can be large or run the other way;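 also: top concentration of the series not given in the record; plate controls included wells without enzyme; inactives centre near -10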
# Target sequence (P15428 whole entry, looked up): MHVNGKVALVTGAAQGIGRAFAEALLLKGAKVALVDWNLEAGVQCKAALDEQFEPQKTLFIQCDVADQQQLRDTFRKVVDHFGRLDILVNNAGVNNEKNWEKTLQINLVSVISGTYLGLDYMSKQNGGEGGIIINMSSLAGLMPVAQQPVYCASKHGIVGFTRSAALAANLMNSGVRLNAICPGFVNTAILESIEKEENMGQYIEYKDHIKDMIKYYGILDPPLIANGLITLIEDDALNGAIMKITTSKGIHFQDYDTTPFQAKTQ
#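 20 nM HPGD preincubated 15 min at room temperature with compound in 50 mM Tris-HCl pH 8, 0.01% Tween 20. Started with 1 mM NAD+ and 30 uM prostaglandin E2; NADH fluorescence (360/450 nm) read 5 times over 30-s intervals, last minus first.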
# Active calls of the source: *; u = inconclusive; & = joins results of further samples. % is scaled to controls: 0 for no effect and ±100 for the full control effect; potency is read from the fitted curve at half-maximal effect. An excerpt; the hit share may differ from the screen's.
HPGD block | canonical_smiles
-2% | NS(=O)(=O)c1ccc(NC(=O)c2ccccc2C(=O)N2CCCCC2)cc1
u | C=C(Cl)COc1ccc2c(CC)cc(=O)oc2c1
-4% | COC(=O)c1cccc(NCN2C(=O)c3ccccc3C2=O)c1
-10%&-10%&-11% | Fc1ccc(C(c2ccc(F)cc2)N2CCN(C/C=C/c3ccccc3)CC2)cc1
-13% | COC(=O)c1ccccc1NC(=O)Nc1nnc(N2CCC(C)CC2)s1
-7% | O=C(/C=C/c1ccc(S(=O)(=O)N2CCOCC2)cc1)NCc1ccc(Cl)cc1
-14% | O=C(Nc1nc(-c2ccccc2)cs1)C1c2ccccc2Oc2ccccc21
-4% | CCCCCCCCCCCCCCCCCCCCCCO
-2% | O=C(CCCC(=O)N(CC(=O)NC1CCCCC1)Cc1ccccc1)Nc1ccccn1
-8% | Cc1ccc(C(=O)Nc2nnc(-c3ccco3)o2)cc1
-8% | Oc1ccc(-c2nc3ccc4ccccc4c3c3c2CCC3)cc1O
-8% | CC(=O)Nc1ccc(/C(C)=N/Nc2nc(Nc3cccc4ccccc34)nc(N3CCOCC3)n2)cc1
-20% | CCOc1ccc(N2CCn3c2nc2c3c(=O)n(CCc3ccccc3)c(=O)n2C)cc1
5% | CCn1c(SCc2cccc(C)c2)nnc1-c1ccc(C)cc1
2% | COC(=O)Nc1ccc(S(=O)(=O)N(CCO)CCO)cc1
-13% | N#Cc1ccsc1NC(=O)COC(=O)c1ccc2ccccc2c1
-11% | COc1ccccc1NC(=O)C/C(N)=N/O
-12% | CC1(OC(=O)c2ccc(Cl)nc2)C(=O)C=C2C=C(c3ccsc3)OC=C2C1=O (stereo unspecified)
u | COc1ccc(C2CC(=O)c3cnc(N4CCN(Cc5ccccc5)CC4)nc3C2)cc1 (stereo unspecified)
-16% | Cc1ccc(-c2nnc(N3CCCCC3)c3ccccc23)cc1S(=O)(=O)N1CCN(C)CC1

# 6 compounds already listed, arranged by SMILES length, highest first:
HPGD block | canonical_smiles
-8% | CC(=O)Nc1ccc(/C(C)=N/Nc2nc(Nc3cccc4ccccc34)nc(N3CCOCC3)n2)cc1
-12% | CC1(OC(=O)c2ccc(Cl)nc2)C(=O)C=C2C=C(c3ccsc3)OC=C2C1=O (stereo unspecified)
-20% | CCOc1ccc(N2CCn3c2nc2c3c(=O)n(CCc3ccccc3)c(=O)n2C)cc1
-8% | Oc1ccc(-c2nc3ccc4ccccc4c3c3c2CCC3)cc1O
5% | CCn1c(SCc2cccc(C)c2)nnc1-c1ccc(C)cc1
-11% | COc1ccccc1NC(=O)C/C(N)=N/O

# The list goes on:
HPGD block | canonical_smiles
-2% | O=C(Cn1c(NCCCO)nc2ccccc21)c1ccc(Br)cc1
-12% | Cc1ccc(C(=O)N2CCN(c3ccc([N+](=O)[O-])c(NCc4ccco4)c3)CC2)cc1
-24% | CCCCSc1nnc(-c2ccc(C)cc2)n1C
-16% | Cc1ccc(O)c(C=Nc2cc(C)ccc2O)c1
9% | COc1cccc(C(=O)NC(C)C(c2cccs2)N2CCN(C)CC2)c1 (stereo unspecified)
0% | COCC(=O)NC1CC2CCCC(C1)N2Cc1ccccc1 (stereo unspecified)
-7% | CCN(CC)c1ccc(NC(=O)C2CCCN(S(=O)(=O)c3cnc[nH]3)C2)c(C)c1 (stereo unspecified)
-4% | CC(=O)SCC(=O)N=c1sc2cc(F)ccc2n1C
-16% | CCc1cc2c(NCCO)ncnc2s1
4.5µM* | Cc1ccc(C)c(Cn2nnc3c(=O)[nH]c(C4CCCN(C(=O)C5CCC5)C4)nc32)c1 (stereo unspecified)
-17% | CC(/C=C/c1ccccc1)=N\NC(=O)CSc1ccccn1
1% | CC(=O)Oc1ccc(C(=O)Nc2cc(C)ccc2NC(=O)COc2ccccc2)cc1
-20% | Cc1ccc(Cc2c(C)nc3nc(SCC(=O)NCc4ccco4)nn3c2C)cc1
-8% | OCc1nc2ccccc2n1CCCOc1ccc(Br)cc1
u | CN(CCC#N)C(=O)CSc1ncnc2sc(-c3ccccc3)cc12
u | C=CCn1c2ccccc2n2nc(C)c(=O)nc12
-5% | Cc1c(Cl)c(C(=O)Nc2nc3ccccc3n2CCN2CCCCC2)nn1C
-22% | COc1cccc(NC(=O)CSc2nnc(Cc3cccn3C)n2-c2ccc(F)cc2)c1
-15% | COc1cccc2cc(C(=O)n3ccc(C)n3)c(=O)oc12
-9% | CC(C)CC(=O)NN1CCCCC1
-4% | O=C(O)C1CCCN1S(=O)(=O)c1ccc(Cl)c(Cl)c1 (stereo unspecified)
u | N#CC1=C(c2ccccc2)/C(=C/c2ccccc2)OC1=O
u | Nc1nc(N)c(N=Nc2ccc(C(=O)O)c(O)c2)c(N)n1
-4% | COc1ccc(Br)cc1/C=C/C(=O)c1ccc(NC(C)=O)cc1
-20% | O=[N+]([O-])c1ccc(NCCNS(=O)(=O)c2ccccc2)c(C(F)(F)F)c1
-1% | NC(=O)CC1NC(=O)c2cc([N+](=O)[O-])cc(I)c2OCCC(C(N)=O)NC(=O)[C@@H]2CCCN2C1=O (stereo partly specified)
-8% | Cc1ccc(OCc2nc(-c3ccc(-n4cccc4)cc3)no2)cc1C
-12% | CCc1ccc(-c2nc(-c3ccncc3)no2)cc1
-10% | Cc1cc(NC(=O)CCNS(=O)(=O)c2cc(Br)cnc2N)ccc1Br
-23% | CCCn1c(=O)c2ccccc2n2c(SCCOc3ccc(Cl)cc3)nnc12
u | CCOC(=O)c1ccc(N2CCN(c3ccc(F)cc3)CC2)c(NC(=O)Nc2cccc(OC)c2)c1
-17% | CO/N=C(\C)c1ncc(C(F)(F)F)cc1N1CCOCC1
-13% | COc1ccc(NC(=O)C2CCN(C(=O)c3ccccc3)CC2)c(OC)c1
-13% | COc1ccc(-c2cc(C(=O)NCc3cccnc3)no2)cc1
-30% | CCNC(=S)N/N=C/c1cn(Cc2ccccc2F)c2ccccc12
-2% | O=C(O)c1cnc(-c2ccccc2)nc1Sc1ccc(Cl)cc1
u | COc1ccc(Nc2nc(C)nc3c2nnn3Cc2ccccc2)cc1OC
-20% | Cc1nc(SCC(=O)NCCc2ccccc2)c2oc3ccccc3c2n1
-29% | CCOc1ccc(Br)cc1S(=O)(=O)Nc1ccc(NC(=O)c2ccccc2C)cc1
u | Cc1ccc(-n2nc(C)c(Sc3ccccc3[N+](=O)[O-])c2N)cc1

# Already shown: entries from further up.
HPGD block | canonical_smiles
u | COc1ccc(Nc2nc(C)nc3c2nnn3Cc2ccccc2)cc1OC
-20% | Cc1nc(SCC(=O)NCCc2ccccc2)c2oc3ccccc3c2n1
-29% | CCOc1ccc(Br)cc1S(=O)(=O)Nc1ccc(NC(=O)c2ccccc2C)cc1

# Additional entries:
HPGD block | canonical_smiles
-6% | Nc1nc(-c2ccco2)nn1C(=O)c1ccc(Cl)cc1
-12% | Nc1nc(N)c2sc3nc(C(F)(F)F)cc(C(F)(F)F)c3c2n1
2% | Cc1cc(C)cc(CC(Cc2nc3ccccc3[nH]2)c2nc3ccccc3[nH]2)c1 (stereo unspecified)
-7% | CC1CCCC(C)N1C(=O)CSc1nc2ncnc(N)c2[nH]1 (stereo unspecified)
-1% | Cc1cccc(S(=O)(=O)N(CC(=O)Nc2ccccc2C)Cc2ccco2)c1
-17% | Cc1ccc[n+](CC(=O)Nc2ccc([N+](=O)[O-])cc2Cl)c1
1% | FC(F)(F)c1ccccc1NC(=S)N1CCN(c2ncccn2)CC1
-5% | NCCC[C@@H](CC(=O)N[C@@H]1CCNC[C@H]1C(=O)N[C@H](CC(=O)N[C@@H](CCC(=O)O)CC(=O)O)Cc1c[nH]c2ccccc12)NC(=O)C[C@H](CO)NC(=O)[C@@H]1CNCC[C@H]1N
22µM* | CCOc1cc(C2C(C#N)=C(N)SC(N)=C2C#N)ccc1OCCN1CCOCC1
-12% | COc1ccccc1NS(=O)(=O)c1ccc(NN=C2CCCCC2)c([N+](=O)[O-])c1
-4% | O=C(O)c1cccc(-n2cccc2/C=N/O)c1
-1% | CCOc1ccc(OCC)c(S(=O)(=O)NCc2ccc3c(c2)OCO3)c1
1% | Cc1ccc(Cl)cc1N1CCN(C(=O)c2cccc3c(=O)c(C)c(-c4ccccc4)oc23)CC1
-31% | CN(C)S(=O)(=O)c1ccc(C(=O)Nc2ccc(S(=O)(=O)NC3=NCCCCC3)cc2)cc1
-11% | CC(C)CSc1nc2c(c(=O)[nH]c(=O)n2C)n1CCc1ccccc1
-6% | N#Cc1ccc(CN2CC3(CCN(C(=O)c4cccc(F)c4)CC3)C2)cc1
-1% | C(=NC12CN3CN(CN(C3)C1)C2)c1ccc2c(c1)OCO2
-17% | COC(=O)Cc1[nH]n(-c2nc3ccccc3s2)c(=O)c1C(C)=O
u | CCC(CC)NC(=O)/C=C/c1ccccc1Cl
-8% | CCC(=O)c1ccc(OCC(O)CN(CCc2ccccc2)Cc2ccccc2)cc1 (stereo unspecified)
-16% | CCN(CC)c1ccc(/C=C(\C#N)c2ccccn2)cc1
-5% | CCOc1cc(/C=N/n2cnnc2)ccc1OC(=O)c1cccc([N+](=O)[O-])c1
-11% | O=C(N/N=C\c1ccccc1OCc1ccccc1)c1ccco1
u | COc1ccc(-c2c(C#N)c(N)nc3sc(C(=O)c4ccccc4)c(N)c23)cc1
-26% | O=C(NCc1n[nH]c(=S)n1-c1ccc(F)cc1)c1ccc(S(=O)(=O)N2CCCC2)cc1
-10% | CCc1ccc(OCC(=O)Nc2ncc3c(n2)CC(C)(C)CC3=O)cc1
-11% | CCCC(=O)NC(Nc1cccc(C(F)(F)F)c1)C(Cl)(Cl)Cl (stereo unspecified)
-14% | CCCC(=O)c1ccc(N2CCN(C(=O)c3ccccc3Br)CC2)c(F)c1
-5% | CC(=O)NNC(=O)C(O)(c1ccccc1)c1ccccc1
-8% | c1ccc(-n2ncc3c2ncn2nnnc32)cc1

# Individual results from the entries so far:
# O=C(NCc1n[nH]c(=S)n1-c1ccc(F)cc1)c1ccc(S(=O)(=O)N2CCCC2)cc1 in HPGD block shows -26%
# O=C(N/N=C\c1ccccc1OCc1ccccc1)c1ccco1 in HPGD block shows -11%
# CC(=O)NNC(=O)C(O)(c1ccccc1)c1ccccc1 in HPGD block shows -5%
# CCN(CC)c1ccc(/C=C(\C#N)c2ccccn2)cc1 in HPGD block shows -16%

# Further entries follow.
HPGD block | canonical_smiles
-1% | CC(C)NC(=O)N1CCC2(CC1)CCN(C(=O)c1csnn1)CC2
-7% | O=C(c1ccc(C(F)(F)F)cc1)N1CCC(=O)N(C(COCc2ccc(Cl)cc2)Cc2ccccc2)CC1 (stereo unspecified)
1% | Cc1nnc(SCSc2nnc(C)s2)s1
-16% | CCN1C(=O)C(O)(CC(=O)c2ccc3c(c2)OCCO3)c2ccccc21 (stereo unspecified)
-26% | CCOC(=O)c1c(-c2ccc(C)cc2)csc1NC(=O)C1CC=CCC1C(=O)O (stereo unspecified)
2% | C=CCN1CN(Cc2ccco2)CNC1=S
-20% | CCOC(=O)c1oc2ccc3c(c2c1C)C(=O)CC1(CCN(C(=O)OCC)CC1)O3
0% | N/C(Cc1ccc([N+](=O)[O-])cc1)=N\OC(=O)c1ccc(Br)o1
4% | Cc1ccc(N2C(=O)SC(N(CC(=O)O)c3cccc(C)c3)C2=O)cc1 (stereo unspecified)
-3% | Cc1ccccc1C(=O)NNC(=O)CSc1nnc(C)n1-c1ccccc1
-14% | CCCC(=O)Nc1cnc(NC(=O)c2cccc(F)c2)cc1C
-11% | Cc1cc(C(=O)CSc2nc3ccc(Cl)cc3[nH]2)c(C)n1CC1CCCO1 (stereo unspecified)
-14% | CCc1nnc(NC(=O)CCC(=O)NCc2ccccc2OC)s1
1% | O=C(OCC(=O)N1CCc2ccccc21)c1cccc(S(=O)(=O)N2CCCc3ccccc32)c1
-8% | CC1(C)CC(=O)c2sc(NC(=O)c3cccs3)nc2C1
-16% | Cc1ccc(C)c(Cn2cnc3c(nnn3-c3ccc(F)cc3)c2=O)c1
-20% | COC(=O)C1=C(C)NC(C)=C(C(=O)OC)C1c1ccc(NC(C)=O)cc1
-14% | COC(=O)CC1C(C)(C)C(OC(C)=O)C2CC3C4CC(=O)OC(c5ccoc5)[C@]4(C)CCC3[C@@]1(C)C2=O (stereo partly specified)
-15% | Cc1c(Cl)cccc1NC(=S)N1CCN(Cc2ccc3c(c2)OCO3)CC1
-22% | Cc1ccccc1-n1nc2c(c1NC(=O)c1ccc(Br)o1)CSC2
-10% | O=C(CCC(=O)N(CC(=O)NC1CCCC1)C1CCCC1)Nc1ccccn1
-3% | CC1CN(S(=O)(=O)Cc2ccccc2)CC(C)O1 (stereo unspecified)
-18% | C(=N\n1cnnc1)/c1cn(Cc2ccccc2)c2ccccc12
u | CCn1c(/C=C/c2ccccc2)nc2ccccc21
16µM* | CCN(CC)c1ccc(/C=C(/C#N)C(=O)NCc2ccccc2)o1
2% | COc1cccc(C(=O)Nc2ccccc2N2CCCC2)c1
-7% | Cc1cc(N)ccc1S(C)(=O)=O
1% | COc1ccc(NC(=O)CC2C(=O)N(c3ccc(F)cc3)C(=S)N2NC(=O)c2ccccc2)cc1 (stereo unspecified)
4% | COc1ncnc2c1NC(=O)CS2
-9% | COc1cc(C2C(C#N)=C(C)NC3=C2C(=O)CC(C)(C)C3)ccc1OCCO (stereo unspecified)
-18% | CCOC(=O)C1CCN(c2nc3ccccc3nc2C(C#N)C(=O)OC(C)C)CC1 (stereo unspecified)
-7% | CC(=O)Nc1sc2c(c1CN1CCN(c3ccc(F)cc3)CC1)CCCC2
-7% | CN1CCC(CNC(=O)c2ccc(-n3c(=O)c(=O)[nH]c4ccccc43)cc2)CC1
-6% | O=C(NCc1cccs1)C1CCC(=O)N1C1CCCCC1 (stereo unspecified)
-1% | Cc1nnc(NC(=O)CC(CN(C)S(=O)(=O)c2ccccc2)c2ccccc2)s1 (stereo unspecified)
-5% | Cc1cc(CN(C)C)c(O)c(C2(C)CCCCC2)c1
-15% | COc1ccc(CC2CCOC2=O)cc1 (stereo unspecified)
